# Screens: PubChem BioAssay, several laboratories
# Mtb H37Rv: M. tuberculosis H37Rv growth inhibitors, H37Rv strain (AID 1626); 0.95% of 220,000 active; one-dose inhibition, % at 10 µM; IC50 in µM for titrated hits; M. tuberculosis H37Rv growth inhibition; higher % means a stronger effect;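 active = confirmed in a dose series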;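 note: bacteria incubated seven days before Alamar blue readout; 0% = bacteria only wells and 100% = bacteria with antibiotic wells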
# YopH inh: inhibitors of Yersinia enterocolitica YopH tyrosine phosphatase; fluorescence Ex485/Em525; inhibition, %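 (about 10 µM by stock and volumes)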; 0.16% of 140,000 active; AID 898;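 active = inhibition of 50% or more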;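 note: controls were vehicle for no effect and minimum signal wells for full effect; inactives centre near -20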
# Arbovirus inh: antivirals against arbovirus infection; arbovirus infection cell-based antiviral screen; inhibition, % at 10 µM; 0.37% of 200,000 active; AID 1251;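 active = inhibition from about 30%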;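 note: bluetongue infection of BSR cells; cell survival read as ATP light after 72 h; 0% = infected wells without compound and 100% = uninfected wells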
# RecA splice inh: Mtb RecA intein splicing inhibition | cell-free RecA intein splicing, fluorescence | inhibition, %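 (about 9 µM by stock and volumes)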 | 0.75% of 290,000 active; in the data active = inhibition above about 30%;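 note: 0% = vehicle wells and 100% = reference inhibitor control wells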
# Target sequence (P9WHJ3 whole entry, looked up, canonical isoform): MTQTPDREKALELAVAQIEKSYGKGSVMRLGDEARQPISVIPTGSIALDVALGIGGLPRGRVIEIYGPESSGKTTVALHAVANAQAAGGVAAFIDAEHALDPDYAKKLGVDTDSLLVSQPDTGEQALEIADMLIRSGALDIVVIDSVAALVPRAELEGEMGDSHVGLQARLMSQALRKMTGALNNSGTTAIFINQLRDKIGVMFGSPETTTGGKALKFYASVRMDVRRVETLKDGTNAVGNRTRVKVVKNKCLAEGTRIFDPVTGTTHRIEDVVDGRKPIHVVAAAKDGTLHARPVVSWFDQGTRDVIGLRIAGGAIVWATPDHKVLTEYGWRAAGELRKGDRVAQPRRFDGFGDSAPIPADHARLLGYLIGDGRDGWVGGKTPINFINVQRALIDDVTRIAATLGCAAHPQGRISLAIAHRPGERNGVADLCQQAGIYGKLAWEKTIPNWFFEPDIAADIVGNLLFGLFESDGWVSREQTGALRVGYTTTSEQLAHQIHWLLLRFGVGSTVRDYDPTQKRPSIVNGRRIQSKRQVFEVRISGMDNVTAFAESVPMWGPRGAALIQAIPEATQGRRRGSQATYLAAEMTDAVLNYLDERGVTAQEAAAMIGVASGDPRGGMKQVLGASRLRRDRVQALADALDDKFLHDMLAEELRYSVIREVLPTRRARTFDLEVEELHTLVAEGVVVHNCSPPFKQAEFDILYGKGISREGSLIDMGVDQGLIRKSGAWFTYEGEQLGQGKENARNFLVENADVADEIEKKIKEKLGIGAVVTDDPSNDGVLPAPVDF
# Mtb betalactam: beta-lactam sensitization of Mtb H37Rv | M. tuberculosis H37Rv growth with meropenem, percent inhibition; hits of this screen are not shown here | inhibition, % at 25 µM | 0.27% of 330,000 active | AID 434955;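 active = about 74% or more and at least 40 points above the plate without the antibiotic, then above 30% in a dose series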;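 note: growth measured after seven days incubation then overnight dye step; 0% = bacteria only wells and 100% = bacteria with antibiotic; twin plates without the antibiotic show which effects depend on it; some results filed as inactive read as strong as hits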
# Arbovirus inh repeat: also measured in Arbovirus inh; calls as there; inhibition, %; measured here: 10K subset replicate screen; many hits read low in the repeat;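 first of two repeat runs on a subset; 0% = infected and 100% = uninfected wells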
# Numbers without * were called inactive; nt = no result given. An excerpt, so the mix of outcomes need not match the whole.
SMILES,Mtb H37Rv,YopH inh,Arbovirus inh,RecA splice inh,Mtb betalactam,others
Cn1cnnc1SCC(=O)NC1CCCCCC1,nt,nt,nt,-0.9,-11,
COc1ccc(CSc2nnc(C)n2N)cc1[N+](=O)[O-],3%,nt,0,-1.4,-4,
CCN(CC)S(=O)(=O)c1ccc(Cl)c(OC)c1,-7%,-12,0,-2.7,-3,
CCCCCCN(C(=O)CCCCCN1C(=O)NC(c2ccc(-c3ccccc3)cc2)C(C(=O)OCc2ccccc2)=C1C)C(C(=O)NCCCC)C1CCCCC1 (stereo unspecified),12%,nt,nt,-2.9,nt,
N#CN=C1SCCS1,-1%,-52,6,nt,-2,Arbovirus inh repeat=-1
Cc1ccc(C(=O)C(C)OC(=O)Cn2c(C)csc2=O)cc1 (stereo unspecified),nt,nt,nt,-6.7,-13,
CC1C=CCC2C(=O)N(c3cccc(C(=O)NCCc4ccccc4)c3)C(=O)C12 (stereo unspecified),nt,nt,nt,-8.4,-3,
Cc1oc(-c2ccc3c(c2)OCCO3)cc1C(=O)O,-1%,-25,0,-1.7,-2,
CCOc1ccc(Oc2ccc(Cl)cc2NC(=O)C2=COCCO2)cc1,nt,nt,nt,0.0,-4,
O=C1c2cccc3c([N+](=O)[O-])ccc(c23)C(=O)N1CC1CCCO1 (stereo unspecified),3.8µM*,nt,-24,-70,nt,
CC(C)(C)c1cc(Cl)ccc1OCCOCCN1CCCC1,nt,nt,nt,1.6,-23,
Clc1cc2cccnc2c2ccccc12,-4%,-11,1,1.7,5,
CC12CCC(=O)N1c1ccccc1C(=O)N2c1ccccc1 (stereo unspecified),-3%,-10,9,-2.1,-4,
COCCSc1ccccc1C(=O)N1CCc2ccccc2C1,-5%,nt,8,-0.5,-6,
CCCCNC(NCCCC)=C(S(=O)(=O)CC)S(=O)(=O)CC,0%,-43,-2,-5.9,-2,
Cc1cc2cc(C=C(C#N)C#N)c(Cl)nc2cc1C,4%,-9,3,-0.4,18,
COc1ccc(/C(C)=N/N=C(N)N)c(OC)c1,nt,nt,nt,0.0,-10,
CCOc1ccc(CNC(=O)C2Cc3cc(S(=O)(=O)N4CCCC4)ccc3N2C(C)=O)cc1 (stereo unspecified),nt,nt,nt,2.8,-11,
CC(C)c1nc(N2CCN(C(=O)c3ccco3)CC2)c2c3c(sc2n1)CCCC3,12%,2,-24,27,35,
CCOc1ccc(CCNC(=O)CSc2nn(-c3ccc(C)c(Cl)c3)c(=S)s2)cc1OCC,-7%,-27,-5,-1.4,-3,
CCOc1ccccc1N1CN(Cc2ccccc2)CNC1=S,7%,nt,nt,-1.3,2,
CCOC(=O)Cn1nc(-c2ccc(Cl)cc2)cc1N,-9%,-4,1,2.0,2,Arbovirus inh repeat=-2
COc1ccc(CCNC(=O)C2CCN(S(=O)(=O)c3ccc(-n4cnnn4)cc3)CC2)cc1OC,0%,-16,-5,0.3,-1,
CNS(=O)(=O)c1cccc(C(=O)OCc2csc(-c3ccccc3)n2)c1,5%,-23,10,3.0,5,
COCCCNC(=S)Nc1cc(C)c(C)cc1C,6%,nt,nt,1.0,-17,
CCOC(=O)c1ccc(NC(=O)c2cc(=O)[nH]c3ccccc23)cc1,-1%,nt,2,-5.1,-4,
CCN(C(=O)COC(=O)C1CCN(S(=O)(=O)c2cccs2)CC1)c1ccccc1,-2%,nt,-3,4.5,-5,
OCCC1CN(Cc2cccnc2)CCN1CCc1ccccc1 (stereo unspecified),0%,nt,5,0.7,-1,
CCOc1ccc(CNC(=O)CCCC(=O)n2nc(C)c3ccccc32)cc1,nt,nt,nt,3.5,-3,
NC(=O)COC(=O)C1CSC2(c3ccc(F)cc3)CCC(=O)N12 (stereo unspecified),nt,nt,nt,4.3,1,
CCOC(=O)CCc1c(C)c2ccc(OCc3ccc([N+](=O)[O-])cc3)cc2oc1=O,1%,-49,1,-0.5,0,
CC1(C)N=C(N)N=C(N)N1c1cccc(C(=O)O)c1,0%,-15,3,0.3,6,
CCc1ccccc1SCc1noc(C(=O)NCC2CCCO2)c1C(=O)O (stereo unspecified),-8%,5,9,-1.4,-8,
Cc1c(CCOC(=O)c2cc([N+](=O)[O-])ccc2Cl)sc[n+]1CCCCS(=O)(=O)[O-],-1%,nt,11,-0.7,-2,
Cn1c(=O)oc2cc(S(=O)(=O)NCCCN3CCCC3=O)ccc21,4%,0,1,-4.0,-4,Arbovirus inh repeat=0
O=C(Nc1nn[nH]n1)C12CC3CC(CC(C3)C1)C2,-3%,-25,0,3.6,5,
S=P(Nn1cnnc1)(c1ccccc1)c1ccccc1,4%,nt,0,0.7,4,
Cc1nc(-c2ccccc2)sc1C1(C)CC(c2c(Cl)cccc2Cl)=NO1 (stereo unspecified),-6%,nt,nt,5.5,85,
[O-]/C(=C(\C(=S)Nc1cccc2ccccc12)[n+]1ccccc1)c1cccs1,9%,nt,7,9.4,-12,
CNC(=S)N/N=C(\C)c1ccc(-n2ccnc2)cc1,-4%,-15,-7,-2.4,-8,

# Reprinted from the part before: 3 entries; new compounds follow.
SMILES,Mtb H37Rv,YopH inh,Arbovirus inh,RecA splice inh,Mtb betalactam,others
Cc1nc(-c2ccccc2)sc1C1(C)CC(c2c(Cl)cccc2Cl)=NO1 (stereo unspecified),-6%,nt,nt,5.5,85,
[O-]/C(=C(\C(=S)Nc1cccc2ccccc12)[n+]1ccccc1)c1cccs1,9%,nt,7,9.4,-12,
CNC(=S)N/N=C(\C)c1ccc(-n2ccnc2)cc1,-4%,-15,-7,-2.4,-8,
O=c1[nH]c(=S)n(-c2ccccc2)c(O)c1C=NCc1ccccn1,-6%,nt,nt,-2.1,-12,
O=C(Cn1c(=O)oc2cc(S(=O)(=O)N3CCCC3)ccc21)NCc1ccc(F)cc1,3%,-50,8,-1.6,-9,
Cc1cccc(Cn2ccc(NC(=O)c3cccnc3)n2)c1,-2%,nt,-21,-0.2,4,
CCOC(=O)C(Cc1ccccc1)C(=O)NCc1cccnc1 (stereo unspecified),nt,nt,nt,1.9,-1,
Clc1ncnc2scc(-c3ccccc3)c12,-12%,-21,0,11,8,
O=C(Nc1ccc(S(=O)(=O)N2CCCC2)cc1)c1cnccn1,2%,nt,7,-0.9,-3,
Cc1[nH]c2ccccc2c1/C=C(\C#N)C(=O)NC1CC1,nt,nt,nt,1.9,0,
COc1ccc(CC(=O)NCc2csc(-c3cccs3)n2)cc1OC,-6%,nt,nt,3.7,-6,
COc1ccc(C2SCC(=O)N2c2ccc(F)cc2)cc1 (stereo unspecified),nt,nt,nt,-9.9,1,
COc1ccc(/C=C/c2nnc(NC(=O)C(C)(C)C)s2)cc1,10%,nt,nt,-3.9,58,
COc1ccc(C2C=C(Nc3ccccc3)C(=O)N2c2ccccc2)cc1OC (stereo unspecified),0%,-15,8,-2.2,-6,
C=C(C(=O)O)C1CCC2(C)CCCC(C)(O)C2C1 (stereo unspecified),-9%,nt,nt,-2.3,-5,
COCCCNC(=O)c1ccc(OC)c(OC2CCN(C(C)C)CC2)c1,nt,nt,nt,-1.0,-1,
O=C(COc1ccc(S(=O)(=O)N2CCOCC2)cc1)N1CCCCCC1,-1%,nt,6,-2.6,-7,
CCOc1cccc2cc(C(=O)N3CCN(C/C=C/c4ccccc4)CC3)c(=O)oc12,-3%,-21,-1,-1.8,-11,
O=C1/C(=C\c2ccncc2)CCc2ccccc21,nt,nt,nt,19,99,
CCOC(=O)C(C#N)C(Cc1ccccc1)c1ccco1 (stereo unspecified),-2%,-12,-4,1.3,-3,
O=C(CSC1=NCCS1)Nc1cccc2ccccc12,nt,1,1,10,2,
O=C(CC1SC(N2CCCCC2)=NC1=O)Nc1cccc(C(=O)O)c1 (stereo unspecified),-6%,-23,12,-6.1,-14,
CCC(=O)N1c2ccc(S(=O)(=O)CCC(=O)N3CCC4(CC3)OCCO4)cc2CC1C (stereo unspecified),nt,-36,5,-1.7,-6,
O=C(C1CCCO1)N1CCN(C(=S)Nc2ccc(F)cc2)CC1 (stereo unspecified),-11%,-24,4,-1.1,7,
COC(CNC(=O)c1cc(S(=O)(=O)N2CCc3ccccc32)ccc1F)OC,nt,nt,nt,-1.1,3,
CC(C)c1ccc(/C=C2\SC(=S)N(CCC(=O)N3CCCCC3CCO)C2=O)cc1 (stereo unspecified),nt,nt,nt,-2.8,6,
COc1cc(-c2noc(CCC(=O)Nc3cccnc3)n2)cc(OC)c1OC,-8%,-30,4,-0.3,2,
CCCOC(=O)c1ccc(NS(=O)(=O)c2cccs2)cc1,8%,-29,-2,0.3,81,
Cc1ccc(CNC(=O)c2nnn(CC(=O)Nc3cc(C)cc(C)c3)c2N)cc1,nt,nt,nt,-0.4,3,
CN(C)c1ccc(C(=O)N2CCCC2)cc1,2%,nt,1,-1.3,4,
CCOc1ccc2nc(Cl)c(C3CC(c4ccco4)=NN3S(C)(=O)=O)cc2c1 (stereo unspecified),1%,nt,nt,-6.2,-6,
O=C(CSc1nnc(-c2ccccn2)n1-c1ccccc1)Nc1ccc2c(c1)OCO2,-6%,-142,-9,2.3,1,
CN(C)Cc1c(O)ccc2c(=O)c(-c3ccccc3)c(C(F)(F)F)oc12,nt,nt,nt,-4.0,-1,
CCN1C(c2ccccc2)=C(c2ccccc2)S/C1=C/C=C1\SC(=S)N(C)C1=O,nt,-23,-4,nt,nt,
O=C(CCN1C(=O)C2C3C=CC(C3)C2C1=O)N1CCN(c2ccccc2F)CC1 (stereo unspecified),nt,-24,3,2.2,-13,
CN(CC(=O)Nc1cccc(F)c1)C(=O)c1ccc(COc2ccccc2)cc1,nt,nt,nt,0.8,2,
CCOC(=O)c1nnn(-c2nonc2N)c1-c1ccc(C)cc1,2%,18,6,-3.7,-2,
CC(=O)c1cn(CC(=O)Nc2ccc(C)c(C)c2)c2ccccc12,2%,nt,9,-3.0,-7,
CCOc1ccc(-c2nc(-c3cccs3)c(CC(=O)O)s2)cc1OC,-4%,nt,7,8.1,50,
CCC(C(=O)Nc1ccc(C)cc1)c1ccccc1 (stereo unspecified),-1%,nt,5,2.8,-13,
Cc1cccc(NC(=O)C2CC3CCC2C3)c1C (stereo unspecified),nt,nt,nt,0.4,-2,
CCN(Cc1cc2cc(OC)ccc2[nH]c1=O)C(=O)Cc1ccc(OC)cc1,-5%,-17,-6,0.4,-11,
CCOC(=O)NC(=O)/C(C#N)=N\Nc1cccc(OC)c1,3%,nt,0,-2.6,0,

# Pulled by structure from the list above, 3 records:
SMILES,Mtb H37Rv,YopH inh,Arbovirus inh,RecA splice inh,Mtb betalactam,others
CCOC(=O)c1ccc(NC(=O)c2cc(=O)[nH]c3ccccc23)cc1,-1%,nt,2,-5.1,-4,
CCOc1ccc2nc(Cl)c(C3CC(c4ccco4)=NN3S(C)(=O)=O)cc2c1 (stereo unspecified),1%,nt,nt,-6.2,-6,
COc1ccc(C2SCC(=O)N2c2ccc(F)cc2)cc1 (stereo unspecified),nt,nt,nt,-9.9,1,

# Remaining list, next part.
SMILES,Mtb H37Rv,YopH inh,Arbovirus inh,RecA splice inh,Mtb betalactam,others
COc1ccc2c(c1OC)C(=O)OC2,2%,nt,-2,-1.3,-5,Arbovirus inh repeat=2
COC(=O)c1ccc(NC(=O)CCNS(=O)(=O)c2cccc3nonc23)cc1,-5%,-7,3,-1.6,5,
COc1ccc(OCc2cccc(C(=O)Nn3cc([N+](=O)[O-])cn3)c2)cc1,0%,-6,15,-0.9,82,
O=C(N/N=C/C=C/c1ccco1)/C(=C/c1ccccc1)NC(=O)c1ccccc1,3%,28,-3,8.4,1,
CCOC(=O)C(CCCOc1ccccc1)C(=O)OCC,-3%,-31,-4,1.0,98,
O=C(COC(=O)/C=C/c1ccc(OC(F)F)cc1)NCc1cccs1,4%,-16,2,-1.0,55,
CC(=O)Nc1cccc(N(C)C)c1,3%,-28,-1,-5.8,0,Arbovirus inh repeat=-2
O=C(NCCc1ccccn1)c1ccc(OC(F)F)cc1,0%,nt,11,-1.2,6,
CC(=O)Nc1ccc(S(=O)(=O)NC2(C(F)(F)F)C(=O)Nc3c2c(=O)[nH]c(=O)n3Cc2ccco2)cc1 (stereo unspecified),-2%,nt,4,2.2,-2,
O=C(NC(=S)Nc1ccc(S(=O)(=O)Nc2ncccn2)cc1)c1cccc(Br)c1,-2%,nt,2,-0.7,-10,
CC1CN(C(=O)Nc2cccc(Cl)c2)C2(CCCCCC2)O1 (stereo unspecified),2%,nt,-13,-0.2,-1,
COc1ccc(-c2nn(CCC#N)cc2C(=O)Nc2ccccn2)cc1OC,nt,nt,nt,-0.6,-7,
O=c1[nH]c2ccccc2nc1-c1c[nH]c2ccccc12,nt,nt,nt,-11,4,
